Source: PubChem BioAssay
Measles inh: inhibitors of measles virus growth in infected cells | hit rate 0.1% among 33,000 | AID 745 | z-score (concentration not given with the values) | infected Vero cells, GFP fluorescence, 64 h; active compounds read low;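 active means z-score under -3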;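 further: score is relative to mean and SD of the compound wells of a plate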
* marks the source's active call; other numbers are inactive results. The list is partial; the hit share may differ from the screen's.

Cn1cc(C(=O)N2CCc3ccccc3C2)c(=O)c2cc(S(=O)(=O)N3CCCCC3)ccc21
  Measles inh: 3.37
COC(=O)c1cc(COc2ccc3c4c(c(=O)oc3c2)CCC4)c(C)o1
  Measles inh: 1.05
CCc1ccccc1N1C(=O)C2C(c3ccc(Br)cc3)OC3(C(=O)c4ccccc4C3=O)C2C1=O (stereo not drawn)
  Measles inh: -1.32
COc1ccc(-n2cc(-c3ccc([N+](=O)[O-])cc3)[n+]3c2SCCC3)cc1
  Measles inh: 0.36
Cn1c(=O)c2c(ncn2Cc2cccc(Cl)c2)n(C)c1=O
  Measles inh: 1.02
CC(=O)C1C(=O)C=C(c2ccco2)CC1c1cccc(Br)c1 (stereo not drawn)
  Measles inh: -0.78
COc1ccc(C2=NN(CC(=O)NCCN3C(C)CCCC3C)C(=O)CC2)cc1 (stereo not drawn)
  Measles inh: -0.79
Cc1ccc(S(=O)(=O)N=C2SCCCS2)cc1
  Measles inh: 0.49
O=C(Nc1ccc(Br)cn1)c1ccc([N+](=O)[O-])o1
  Measles inh: -1.2
Cc1cc(NS(=O)(=O)c2ccc3c(c2)CCC(=O)N3)ccc1Br
  Measles inh: -1.79
Cc1ccc(NC(=O)c2c(C)nc3sc(C(=O)N4CCCC4)c(N)c3c2-c2ccc(C)o2)c(C)c1
  Measles inh: 0.36
CCC1CCCCN1C(=O)c1ccc(OC)cc1 (stereo not drawn)
  Measles inh: -0.76
COc1ccc(-n2nc(C(=O)NCC(=O)Nc3cnc4ccccc4c3)c3ccccc3c2=O)cc1OC
  Measles inh: -0.88
Cc1ccc(-n2nc3c(c2NC(=O)c2ccc(Br)cc2)CSC3)c(C)c1
  Measles inh: -0.37
CC(=O)Oc1c(Br)cc(N(C(C)=O)S(=O)(=O)c2ccccc2)c2ccccc12
  Measles inh: -1.36

CCCCS(=O)(=O)NC1=NCN(CC)CN1
  Measles inh: -1.18
COc1cccc(CSc2ccc(C(=O)O)cc2[N+](=O)[O-])c1OC
  Measles inh: 0.19
O=C(CSc1c[nH]c2ccccc12)Nc1cc(C(F)(F)F)ccc1Cl
  Measles inh: -0.34
N#Cc1c(N)nc2sc(C(=O)c3ccccc3)c(N)c2c1-c1ccccc1
  Measles inh: -0.05
CCOc1ccc(Sc2cc(C(=O)NCc3cccnc3)c3ccccc3n2)cc1
  Measles inh: 0.56
O=C(NCc1ccc(F)cc1)c1nn2c(c1Cl)NC(c1cccs1)CC2C(F)(F)F (stereo not drawn)
  Measles inh: -0.59
CCOC(=O)c1ccc2c(CN(C)C)c(-c3ccc([N+](=O)[O-])cc3)c(CN(C)C)n2c1
  Measles inh: -0.77
CC(C)OC(=O)c1ccc2c(c1)C(=O)N(c1cccc(N)c1)C2=O
  Measles inh: -0.72
CCN(CC)CCNC(=O)c1c(C)oc2cc(Br)c(OC)cc12
  Measles inh: -0.77
Cc1ccc(S(=O)(=O)Nc2cc(C(=O)NCc3cccs3)ccc2N2CCCC2)cc1
  Measles inh: 0.66
CC12CC(c3ccccc3O1)N(C(=O)c1cccs1)C(=O)N2c1ccc(F)cc1 (stereo not drawn)
  Measles inh: 0.51
Cc1nn(Cc2ccccc2)c(C)c1NC(=O)CCS(=O)(=O)c1nc(-c2cccs2)cc(C(F)(F)F)n1
  Measles inh: 2.04
O=C(c1ccccc1O)N1CCOCC1
  Measles inh: -0.93
CCOC(=O)C1CCCN(C(=O)c2ccc(Sc3ccc(F)cc3)c([N+](=O)[O-])c2)C1 (stereo not drawn)
  Measles inh: -0.36
N#CCSc1nc2ccccc2c(=O)n1Cc1cccs1
  Measles inh: 0.66

COC(=O)c1c(NC(=O)c2cccc(Br)c2)sc2c1CCCC2
  Measles inh: -0.05
CCOc1ccc(Nc2c3c(nc4ccc(Cl)cc24)CCC3)cc1
  Measles inh: 0.75
O=C(OCc1cccc(COC(=O)c2ccc(Cl)cc2)n1)c1ccc(Cl)cc1
  Measles inh: -0.5
CCc1ccc(-c2ccc(C(=O)Nc3ccc(OC)cc3)cc2)nc1
  Measles inh: 0.23
COC(=O)c1scc(C)c1NC(=O)C(C)Sc1nc(C)cc(C)c1C#N (stereo not drawn)
  Measles inh: -0.77
Fc1ccccc1CNCCC(Cc1ccccc1)c1ccc2c(c1)OCO2 (stereo not drawn)
  Measles inh: -1.54
N#Cc1cccn1Cc1ccccc1F
  Measles inh: 0.27
O=C(Cn1nc(-c2ccc(Cl)cc2)ccc1=O)NCc1ccccc1Cl
  Measles inh: 0.86
CCN(CC)C(=O)COc1ccc2c(c1)C(=O)CC(C)(C)O2
  Measles inh: 0.11
CC(C)c1ccc(C(=O)CC2(O)C(=O)N(C)c3ccc(Br)cc32)cc1 (stereo not drawn)
  Measles inh: -0.27
O=C(Nc1ccc(C(=O)Oc2ccccc2)c(O)c1)c1ccccc1
  Measles inh: 0.03
COc1ccc(Cl)cc1NC(=O)c1nc2nc(-c3ccccc3)cc(C(F)(F)F)n2n1
  Measles inh: 1.29
O=C(O)c1cc(S(=O)(=O)Nc2cccc(C(F)(F)F)c2)ccc1F
  Measles inh: 1.09
Cc1ccc(NC(=O)Cn2cnc3sc4c(c3c2=O)CCCC4)cc1F
  Measles inh: -0.14
CCCOC(=O)c1cc(-c2ccc(Br)cc2)nc2ccccc12
  Measles inh: -0.06

COc1cccc(C(=O)N2CC(=O)Nc3ccc(C)cc3C2c2ccccc2)c1 (stereo not drawn)
  Measles inh: -0.65
Cc1nn(C)cc1-c1n[nH]c(=S)n1-c1ccc(F)cc1
  Measles inh: -0.67
CCOC(=O)C1=C(C)Nc2nc(SCc3ccccc3C)nn2C1c1ccc([N+](=O)[O-])cc1 (stereo not drawn)
  Measles inh: -0.73
COc1cccc(-n2ccnc2SCC(=O)Nc2cccc(C(F)(F)F)c2)c1
  Measles inh: -1.02
Cc1nn(CC(=O)Nc2sc3c(c2C#N)CCCCC3)c(C)c1[N+](=O)[O-]
  Measles inh: -0.37
COc1ccc(-n2c(=O)c3c4c(sc3n(Cc3ccc([N+](=O)[O-])cc3)c2=O)CCCC4)c(OC)c1
  Measles inh: -0.12
Cn1c(=NC(=O)c2ccc(S(=O)(=O)N3CCc4ccccc43)cc2)sc2cc(Cl)ccc21
  Measles inh: -0.54
Cc1cccc2sc(=NC(=O)c3ccc(S(=O)(=O)N4CC(C)CC(C)C4)cc3)n(C)c12 (stereo not drawn)
  Measles inh: 1.33
O=C(O)c1ccccc1N1C(=O)c2cccc3cccc(c23)C1=O
  Measles inh: 2.02
O=C(c1ccccc1F)N1CCN(Cc2cccc(F)c2)CC1
  Measles inh: 0.34
O=C(c1ccccc1[N+](=O)[O-])N1CCN(c2cccc(Cl)c2)CC1
  Measles inh: -1.15
Cc1c(C(=O)O)sc(=S)n1C
  Measles inh: 1.03
O=[N+]([O-])c1c(Nc2ccc(Cl)cc2)cc(N2CCCCC2)c2nonc12
  Measles inh: -0.53
CC(=O)c1c(N2CCCCC2)nc2ccc(Br)cc2c1-c1ccccc1
  Measles inh: -0.23
O=C(NC1CCCCC1)C1CCN(S(=O)(=O)c2ccc(F)cc2)CC1
  Measles inh: 0.07

CN(C)CCSc1nc(O)c(-c2ccccc2)c(=O)n1-c1ccccc1
  Measles inh: 2.26
COc1ccc(N2Cc3cccc(C(=O)NCCc4ccc(OC)c(OC)c4)c3C2=O)cc1
  Measles inh: -0.37
CCC(=O)N1c2ccccc2NC(=O)CC1C (stereo not drawn)
  Measles inh: -0.84
CC(C)NC(=O)C1c2ccccc2C(=O)N(C)C1c1cn(C)c2ccccc12 (stereo not drawn)
  Measles inh: 0.07
COc1ccccc1N1CCN(C2CCN(Cc3ccccc3Cl)CC2)CC1
  Measles inh: -1.06
CCC(=O)N1CCc2cc(Br)cc(S(=O)(=O)N3CCC(C(=O)Nc4cccc(F)c4)CC3)c21
  Measles inh: 1.31
COC(=O)C1=CN(c2ccc(F)cc2)C=C(C(=O)OC)C1c1ccc(Cl)s1
  Measles inh: 0.55
COC(=O)c1c(NC(=O)CSc2nccn2C)sc2c1CCC(C(C)(C)C)C2 (stereo not drawn)
  Measles inh: -1.98
COc1ccc(C2N(C(=O)c3ccccc3)CCN2S(=O)(=O)c2ccccc2)cc1 (stereo not drawn)
  Measles inh: -0.53
CCOC(=O)c1c(NC(=O)CSc2ncnc3sc4c(c23)CCC4)sc2c1CCCC2
  Measles inh: 1.69
Cc1cc(C)cc(-n2nnc(C(=O)Nc3ccc(F)cc3)c2N)c1
  Measles inh: -0.18
O=S1(=O)Nc2c(ccc3cccnc23)-c2ccccc21
  Measles inh: -0.08
CCNC(=O)CN(c1cc(C(F)(F)F)ccc1Cl)S(=O)(=O)c1ccccc1
  Measles inh: -0.59
CCCCNC(=O)c1oc2ccc(S(=O)(=O)N3CCCC3)cc2c1C
  Measles inh: 0.41
COc1cccc(C2NC(CC(C)C)(C(=O)O)C3C(=O)N(c4cccc(C)c4)C(=O)C23)c1O (stereo not drawn)
  Measles inh: -0.27

Cc1ccc(-c2nc3ccccc3c(=O)n2CC(=O)NC2CCCCC2)cc1
  Measles inh: 0.28
COC(=O)c1[nH]cnc1C(=O)Nc1ccc(C)cc1C(=O)c1ccccc1
  Measles inh: 0.34
O=C(CCNS(=O)(=O)c1cccc2nsnc12)NCCc1ccccc1
  Measles inh: 2.12
Cc1cccc(NC(=O)Cn2cnc3sc(C)c(S(=O)(=O)N4CCC(C)CC4)c3c2=O)n1
  Measles inh: -1.37
CCOC(=O)C1C(c2cccs2)NC(=S)NC1(O)C(F)(F)F (stereo not drawn)
  Measles inh: 0.61
Cc1ccc(S(=O)(=O)NCC2CCC(C(=O)N3CCC(C(N)=O)CC3)CC2)cc1 (stereo not drawn)
  Measles inh: -0.35
COC(=O)c1ccccc1NC(=O)c1nn(-c2ccc(OC)cc2)c(=O)c2ccccc12
  Measles inh: 2.13
O=C(c1oc(=O)c2ccccc2c1-c1ccccc1)N(CCc1ccccc1)Cc1ccccc1
  Measles inh: 0.03
CCCCNC(=O)c1cc(Nc2ccccc2OC)nc2ccccc12
  Measles inh: 0.53
CCCCN(C)C(=O)C1c2ccccc2C(=O)N(CCOC)C1c1cn(C)c2ccccc12 (stereo not drawn)
  Measles inh: -0.67
CCOC(=O)c1c(NC(=O)c2ccc([N+](=O)[O-])cc2Cl)sc2c1CCCCC2
  Measles inh: 1.01
Cc1ccc(S(=O)(=O)NC2=CC(=NCc3ccccc3)C(=O)c3ccccc32)c(C)c1
  Measles inh: 2.72
COc1ccc2cc3cc(C(=O)Nc4cccc(C)n4)oc3nc2c1
  Measles inh: -0.01
COc1cc(OC)cc(C(=O)N2CC(=O)Nc3ccc(F)cc3C2c2ccc(F)cc2)c1 (stereo not drawn)
  Measles inh: -1.48
COc1ccc(C2=CC(c3ccccc3C)n3c(nc4ccccc43)N2)cc1 (stereo not drawn)
  Measles inh: 2.43

Three of the compounds above, with the structure last.
Measles inh | molecule
-1.37 | Cc1cccc(NC(=O)Cn2cnc3sc(C)c(S(=O)(=O)N4CCC(C)CC4)c3c2=O)n1
0.61 | CCOC(=O)C1C(c2cccs2)NC(=S)NC1(O)C(F)(F)F (stereo not drawn)
-0.35 | Cc1ccc(S(=O)(=O)NCC2CCC(C(=O)N3CCC(C(N)=O)CC3)CC2)cc1 (stereo not drawn)

(further entries)
CC(=O)c1cc2c(cc1NC(=NS(=O)(=O)c1ccccc1)c1ccccc1)OCO2
  Measles inh: 2.51
O=C(Nc1cccc2c1OCO2)c1cc2nc(-c3ccc(Br)cc3)cc(C(F)(F)F)n2n1
  Measles inh: 2.19
COc1ccccc1N1C(=O)c2ccc(C(=O)Nc3cc(C(=O)O)cc(C(=O)O)c3)cc2C1=O
  Measles inh: -0.57
CCN(CC)CCC#CC(OC)(c1ccccc1)c1ccccc1
  Measles inh: -1.4
CCCCCOc1ccc(C(=O)Nc2nc3ccc4sc(C)nc4c3s2)cc1
  Measles inh: -0.4
O=[N+]([O-])c1c(NCCCO)cc(Sc2nc3ccccc3s2)c2nonc12
  Measles inh: -1.83
Cc1c(OC(=O)c2cccs2)ccc2c3c(c(=O)oc12)CCCC3
  Measles inh: 0.84
C#CCSc1cccc2cccnc12
  Measles inh: -1.69
CCOC(=O)C1=C(c2ccccc2)NC(=O)NC1c1ccc(OC)c2ccccc12 (stereo not drawn)
  Measles inh: 0.68
Cc1ccc(-c2csc(=Nc3cccc(Cl)c3)n2CCO)cc1
  Measles inh: -0.29
O=C(Nc1nc(-c2cc3ccccc3oc2=O)cs1)C1CCCCC1
  Measles inh: -2
O=C1c2ccc(Oc3cccc([N+](=O)[O-])c3)cc2C(=O)N1c1cccc(Cl)c1
  Measles inh: 0.76
COc1ccc(NC(=O)c2sc3cc([N+](=O)[O-])ccc3c2Cl)c(OC)c1
  Measles inh: -0.1
COc1cccc(C2NN(C(=O)c3cccc(Br)c3)C3C(=O)N(c4ccc(C)cc4)C(=O)C23)c1OC (stereo not drawn)
  Measles inh: -1.08
O=C(NCC1CCCO1)c1nn2c(C(F)(F)F)cc(-c3ccc(Br)cc3)nc2c1Cl (stereo not drawn)
  Measles inh: 0.28

CCCCOc1ccc(C2NC(C(=O)O)CS2)cc1 (stereo not drawn)
  Measles inh: 0.47
O=C(CSc1nc2[nH]ncc2c(=O)n1-c1cccc2ccccc12)NCc1ccccc1Cl
  Measles inh: 0.11
CC(C)CCNC(=O)CCN1C(=O)COc2ccccc21
  Measles inh: 0.68
CCOC(=O)c1c(NC(=O)COc2ccccc2[N+](=O)[O-])sc(C(C)=O)c1C
  Measles inh: -1.5
Cc1ccc(C(=O)NCCn2c(C)cc3ccccc32)cc1
  Measles inh: 1.57
CCOc1ccc(C2C(C(C)=O)=C(O)C(=O)N2Cc2ccco2)cc1 (stereo not drawn)
  Measles inh: -0.15
Cc1nc2c(=O)[nH]ccc2[nH]1
  Measles inh: -0.39
Cn1c(C(=O)O)c(CC(=O)Nc2ccccc2F)c2ccccc21
  Measles inh: 1.17
O=C(CN1C(=O)c2ccccc2C1=O)NCC(=O)OCC(=O)c1ccc([N+](=O)[O-])cc1
  Measles inh: 0.54
COc1ccc(C2C(C(=O)Nc3ccc(Cl)cc3)=C(C)Nc3ncnn32)cc1Br (stereo not drawn)
  Measles inh: -0.66
Cc1cc2nnc(SCC(=O)c3ccc4c(c3)OCO4)n2c2ccccc12
  Measles inh: 0.8
COc1ccccc1NC(=O)C1CC(=O)N(C)C(=Nc2ccccc2)S1 (stereo not drawn)
  Measles inh: -0.55
COc1ccc(-c2noc(CCC(=O)Nc3cccc(OC)c3)n2)cc1
  Measles inh: 1.46
